# Screening results from PubChem BioAssay.
# CtBP-E1A blk – qHTS Assay for Inhibitors of the CtBP/E1A Interaction; CtBP / adenovirus E1A interaction (AlphaScreen); AlphaScreen GST-E1A/His-CtBP binding, 1536-well; active compounds read low; control for the full effect not named in the record; activity change, % (no concentration beside the values); hit rate 0.49% among 340,000; AID 651724, 2012; in the data active means activity change below about -65%; inconclusive means about -30% to -65%; inactive means above about -30%; also: % is scaled to controls: 0 for no effect and ±100 for the full control effect
#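 GST-E1A and His-tagged CtBP (125 nM each as 5X stock) were preincubated with pin-transferred compound for 2 h at 37 °C in the dark, then glutathione donor and nickel acceptor beads were added for 1 h before AlphaScreen reading.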
# D2 agonist – Beta-Arrestin HTS for Positive Allosteric Modulators of the Human D2 Dopamine Receptor: Agonists | D(2) dopamine receptor (Homo sapiens), P14416 | hit rate 0.084% among 360,000 | activation, % (test concentration not listed) | DiscoveRx PathHunter D2 beta-arrestin, luminescence, 90 min; 100% = 57 uM dopamine signal; in the data active = activation above about 40%; inconclusive = about 15% to 40%; inactive = below about 15%; also: compound concentration not given in the record; the text of the record calls up to 30% inactive
#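 DiscoveRx PathHunter D2 beta-arrestin cells (2,100/well) attached overnight, then compound-stimulated 90 min at 37 C in HBSS/10 mM HEPES/0.1% Tween-20 buffer; beta-galactosidase complementation read by luminescence after 1 h at ambient temperature. Dopamine 57 uM final (EC100) as control.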
# PINK1 modulator – A Quantitative High throughput Screen to Identify Chemical Modulators of PINK1 Expression. PINK1 immunofluorescence, high-content cytometry, 24 h. Potency, µM (top dose mostly 76.6 µM), for inactives: top-dose activation (PINK1 increase), actives largely listed as activators. hit rate 0.2% among 410,000. AID 624263, 2012; active = well fitted activation curve with a large enough effect; inconclusive = small, poorly fitted or top-dose-only effect; inactive = flat fitted curve, though single readings scatter; cell line not stated here;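 also: potency is read from the fitted curve at half-maximal effect; % of control where 0% means no effect; nearly all actives have a fitted effect of over 65% in size; a mitochondrial uncoupler was the plate control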
#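 Fluorescence from anti-PINK1 antibody, together with nuclear and cell stains, was scanned on a laser-scanning cytometer. Before staining, stable-line cells were incubated 24 hours with compounds at 5 concentrations; primary antibody 12 h at 10 degrees C.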
# Six1-Eya2 inh – qHTS Assay for Inhibitors of the Six1/Eya2 Interaction; AlphaScreen GST-Six1/His-Eya2 binding, biochemical; active compounds read low; control for the full effect not named in the record; hit rate 0.56% among 360,000; activity change, % (concentration not given with the values); Homeobox protein SIX1 (Homo sapiens) + Protein phosphatase EYA2 (Homo sapiens), …; in the data active = activity change below about -65%; inconclusive = about -30% to -65%; inactive = above about -30%; also: % is scaled to controls: 0 for no effect and ±100 for the full control effect
# Target sequence (O00167 whole entry, looked up): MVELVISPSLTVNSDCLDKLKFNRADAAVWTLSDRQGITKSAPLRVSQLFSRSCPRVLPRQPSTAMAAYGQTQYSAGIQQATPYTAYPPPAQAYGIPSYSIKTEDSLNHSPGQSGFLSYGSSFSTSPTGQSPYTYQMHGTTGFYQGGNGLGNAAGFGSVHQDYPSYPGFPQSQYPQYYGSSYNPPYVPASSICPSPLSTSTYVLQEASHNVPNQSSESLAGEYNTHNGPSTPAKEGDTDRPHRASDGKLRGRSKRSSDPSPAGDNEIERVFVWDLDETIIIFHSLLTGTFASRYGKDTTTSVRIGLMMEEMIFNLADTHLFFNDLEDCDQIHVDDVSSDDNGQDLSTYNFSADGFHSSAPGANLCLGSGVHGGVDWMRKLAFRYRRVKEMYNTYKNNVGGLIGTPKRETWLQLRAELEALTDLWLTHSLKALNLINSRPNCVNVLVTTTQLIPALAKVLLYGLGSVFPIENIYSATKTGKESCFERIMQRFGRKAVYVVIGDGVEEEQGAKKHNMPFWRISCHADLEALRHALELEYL
# Target sequence (Q15475 whole entry, looked up): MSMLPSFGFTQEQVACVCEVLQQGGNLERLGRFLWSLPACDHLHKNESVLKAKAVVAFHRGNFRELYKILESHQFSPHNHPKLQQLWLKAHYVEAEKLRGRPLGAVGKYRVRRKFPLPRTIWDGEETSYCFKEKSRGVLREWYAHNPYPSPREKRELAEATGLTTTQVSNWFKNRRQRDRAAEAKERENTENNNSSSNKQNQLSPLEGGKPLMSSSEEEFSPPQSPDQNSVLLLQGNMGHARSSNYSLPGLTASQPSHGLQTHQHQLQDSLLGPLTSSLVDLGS
#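 Homogeneous AlphaScreen proximity assay pairing GST-Six1 with His-tagged Eya2 (added as 5X mix: 250 nM and 500 nM) in 50 mM Tris pH 8.0, 300 mM NaCl, 1 mM TCEP. Glutathione donor and nickel acceptor beads; 1 h, 37 °C, dark.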
# TRPML1 agonist – qHTS for Agonists of the Human Mucolipin Transient Receptor Potential 1 (TRPML1); Mucolipin-1 (Homo sapiens), Q9GZU1; hit rate 0.12% among 410,000; TRPML1-expressing cells, Ca2+ dye fluorescence, FDSS; host cell line not named in the record; reference of the full effect not given here; activation, % (concentration not given with the values); in the data active = activation above about 50%; inconclusive = about 30% to 50%; inactive = below about 30%; also: 0% is about no effect; the text of the record puts the active cut at 80%
#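 Calcium fluorescence on an FDSS kinetic reader gave the read-out. Tet-induced TRPML1-DL cells were plated overnight, dye-loaded (Ca8 with quencher, 45-90 min, room temperature, dark), then read 110 s after compound addition, and again 110 s after 4uM final 54-4 (EC80).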
# TRPML1 inh – qHTS for Inhibitors of the Human Mucolipin Transient Receptor Potential 1 (TRPML1); hit rate 0.02% among 390,000; AID 624415, 2012; TRPML1-inducible cells, Ca2+ dye fluorescence, FDSS; active compounds read low; inhibition of EC80 agonist-evoked calcium signal; activity change, negative = inhibition, % (concentration not given with the values); Mucolipin-1 (Homo sapiens), Q9GZU1; in the data active means activity change below about -50%; inconclusive means about -30% to -50%; inactive means above about -30%;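 also: stimulus is agonist 54-4 at its EC80 concentration; % is scaled to controls: 0 for no effect and ±100 for the full control effect; the text of the record puts the active cut at -80%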
#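 Calcium fluorescence in TRPML1-DL cells induced overnight with Tet: a 110 s read after compound pin addition, then a 110 s antagonist read after challenge with 54-4 at 4 uM final (EC80).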
# * = called active by the depositor; ? = inconclusive; / = no result given; & = joins results of further samples; [ ] = another dose, or the depositor's remark.
SMILES,CtBP-E1A blk,D2 agonist,PINK1 modulator,Six1-Eya2 inh,TRPML1 agonist,TRPML1 inh
COc1ccc(C(=O)NNC(=O)c2cc3cc([N+](=O)[O-])ccc3oc2=O)cc1OC,-7,-5.0,11%,-7,-0.3,11
COc1ccc(-n2c(Cc3cccn3C)nnc2SCC(=O)NCc2ccc(F)cc2)cc1,-7,-1.9,2.7%,-12,0.2,0
CN(C(=O)COC(=O)/C=C/c1cccs1)c1c(N)n(Cc2ccccc2)c(=O)[nH]c1=O,8,-5.3,1.4%,1,1.0,7
C/C(=N\NC(=O)c1nn(C)cc1Br)c1cccc(NC(=O)c2ccncc2)c1,-23,0.8,0.7%,4,0.1,-20
O=[N+]([O-])c1ccc(N2CCCCC2)nc1,-1,-7.0,0.0%,2,/,/
Cn1cc(CNC(=O)C23CC4CC(CC(C4)C2)C3)cn1,-1,-3.9,-0.1%,3,-0.3,-3
Cc1cc(=O)n2[nH]c(COc3ccccc3)nc2n1,9,2.8,1.2%,0,0.8,28
CCC(C(=O)c1ccccc1)P(=O)(NN)c1ccccc1 (stereo not given),0,-7.2,1.0%,-23,-0.2,-25
CC(Sc1nc(-c2ccccc2)cc(C(F)(F)F)n1)C(=O)N1CCOCC1 (stereo not given),4,-1.0,0.6%,12,0.5,20
CCCNC(=O)c1ccc2c(c1)ncn2-c1ccccc1OC,-2,-3.2,0.2%,-4,-0.7,4
CC(NCc1ccc(S(N)(=O)=O)cc1)C(=O)Nc1cc([N+](=O)[O-])ccc1Cl (stereo not given),0,3.7,-0.3%,-12,-1.3,46
CCc1cc2c(=O)c(-c3nc4ccccc4n3C)c(C)oc2cc1OC(C)=O,-16,-4.9,0.8%,10,1.9,33
Cc1cccc(CC(=O)OCn2nnc3ccccc3c2=O)c1,9,-0.1,1.5%,3,0.8,-1
O=C(Nc1ncccc1O)c1ccc2ccccc2c1,-9,-4.6,-0.9%,-6,1.1,-1
COc1cc(C(=O)N/N=C/c2ccc(OC(=O)c3cccc(C)c3)c(OC)c2)ccc1O,-2,3.6,1.4%,-9,1.4,45
COCCCNc1nc(N)c([N+](=O)[O-])c(NCC2CCCO2)n1 (stereo not given),6,-1.6,5.1%,-7,1.2,-14
O=C(Nc1ccccc1N1CCOCC1)c1ccc([N+](=O)[O-])cc1,-5,-0.9,-2.2%,-7,0.2,24
CN(C)c1ccc(-c2nn3c(-c4ccccc4Cl)nnc3s2)cc1,5,-3.8,5.3%,4,1.9,-8
CCOc1cc(C(=O)OCc2ccc(OC)cc2)ccc1OCC(=O)N1CCOCC1,/,-3.6,-0.4%,0,0.2,-8
Cc1nnc(NC(=O)c2cccc(S(=O)(=O)N3CCN(C)CC3)c2)s1,2,-2.4,0.0%,-6,0.5,-5
Cc1ccc(C(=O)C2CCNCC2)cc1,0,-1.0,-1.3%,3,0.6,-4
OC(Cc1nc2ccccc2[nH]1)c1ccccc1Cl (stereo not given),5,-0.3,/,11,0.1,12
Cc1ccc2oc(-c3cc(NC(=O)/C=C/c4ccco4)ccc3Cl)nc2c1,/,/,6.4%,/,0.4,-5
CCN1CCN(c2ncc3c(n2)CCN(Cc2ccc(C)s2)C3)CC1,/,/,-1.0%,/,0.2,2
OC1(c2cccc(C(F)(F)F)c2)CCN(Cc2nc(-c3cnccn3)no2)CC1,-2,-2.6,0.8%,5,-0.2,-6
Cc1ccc(-c2nnc(-c3ccncc3)n2-c2ccc(C)cc2)cc1,1,-4.3,-33%[inhibitor][38.3 µM],2,-0.3,7
Brc1cc2c(cc1/C=N/Nc1nc3ccccc3s1)OCO2,4,5.0,?,-1,-0.4,-5
COc1ccccc1C(=O)NC(C)c1cccc2ccccc12 (stereo not given),-3,-2.2,-0.3%,-5,0.0,-6
CN(C)S(=O)(=O)c1cccc(NC(=S)NC(=O)c2ccco2)c1,0,-6.8,2.1%,-1,-0.5,10
Cc1ccccc1NC(=O)c1ccno1,9,0.2,0.8%,-1,-0.5,-12
COc1cc2sc3cc(NCc4ccc(C)o4)ccc3c(=O)c2cc1OC,-30,1.0,-1.0%,-17,0.2,1
Cn1c(SCC(=O)N/N=C/c2ccc([N+](=O)[O-])s2)nnc1-c1ccc(Cl)cc1,-5,-0.6,?,-8,-0.3,15
COc1ccc(-c2cc(=O)oc3cc(OCC(=O)N(C)C4CCS(=O)(=O)C4)ccc23)cc1 (stereo not given),-14,-3.0,-1.0%,-8,1.0,-2
COc1ccc(N(C)S(=O)(=O)c2c(C)noc2C)c(OC)c1,-1,1.6,-1.0%,-3,0.8,25
COc1cc(OC)cc(C(=O)N[C@H](C(=O)Nc2nc(-c3ccc(F)c(F)c3)cs2)C(C)C)c1,4,2.8,3.8%,8,2.4,-4
CCc1cccc(C)c1NC(=O)C1CCCN1S(=O)(=O)c1cccc2nsnc12 (stereo not given),/,/,2.5%,/,-0.8,-26

# Taken from above, 4 compounds:
SMILES,CtBP-E1A blk,D2 agonist,PINK1 modulator,Six1-Eya2 inh,TRPML1 agonist,TRPML1 inh
OC1(c2cccc(C(F)(F)F)c2)CCN(Cc2nc(-c3cnccn3)no2)CC1,-2,-2.6,0.8%,5,-0.2,-6
Cc1ccc(-c2nnc(-c3ccncc3)n2-c2ccc(C)cc2)cc1,1,-4.3,-33%[inhibitor][38.3 µM],2,-0.3,7
Brc1cc2c(cc1/C=N/Nc1nc3ccccc3s1)OCO2,4,5.0,?,-1,-0.4,-5
COc1ccccc1C(=O)NC(C)c1cccc2ccccc12 (stereo not given),-3,-2.2,-0.3%,-5,0.0,-6

# (listing goes on)
SMILES,CtBP-E1A blk,D2 agonist,PINK1 modulator,Six1-Eya2 inh,TRPML1 agonist,TRPML1 inh
Cc1cccc(N2C(=O)CC(Sc3nc(C)cc(C)n3)C2=O)c1 (stereo not given),4,-3.5,0.0%,0,-0.2,-11
CCC(=O)Nc1ccc(NC(=O)CSc2nnnn2-c2cccnc2)cc1C,6,-2.4,3.8%[38.3 µM],1,0.3,9
COc1ccc(NC(=O)C2Cc3c(-c4ccc(NC(C)=O)cc4)ccnc3O2)cc1 (stereo not given),-6,-4.2,5.6%,27,-0.3,/
CCOC(=O)C1=C(C)N=c2s/c(=C\c3ccc(OCC(=O)O)cc3)c(=O)n2C1c1ccc(Cl)cc1 (stereo not given),-2,-4.0,-0.4%,3,3.0,-4
Cc1cc(O)c(C=Nc2cccc(Cl)c2)c(=O)o1,4,-3.5,0.5%,3,0.0,-11
COc1ccc(NC(=O)c2cc(C3CCCCN3C(=O)c3ccc(C#N)cc3)on2)c(C)c1 (stereo not given),5,-4.4,1.5%,3,0.3,/
COc1ccc(-c2nc(NC(=O)c3ccccc3)sc2-c2ccc([N+](=O)[O-])cc2)cc1,-14,-0.4,-0.6%,0,2.0,12
COc1ccc(-n2c(=O)c3c4c(sc3n3c(SCCC(C)C)nnc23)COC(C(C)C)C4)cc1 (stereo not given),/,/,-0.3%,/,1.4,27
Cc1ccc(C)c(/C=C/C(=O)c2ccccc(=O)c2O)c1,27,-9.3,7.1%,-9,1.4,7
Cc1cc(C)c(C)c(OCC(=O)N2CCCCCC2)c1,2,-1.4,-0.9%,6,7.2,-5
c1csc(C(c2nnnn2C2CCCCC2)N2CCN(c3nc4ccccc4s3)CC2)c1 (stereo not given),1,-6.3,-0.5%,3,0.8,-4
Cc1cc(NC(=O)C2CCC(CNS(=O)(=O)c3ccc(Br)s3)CC2)ccc1Br (stereo not given),/,/,5.6%,/,1.2,6
O=C(CN1CCC(NC(=O)c2ccc(F)cc2)CC1)NCc1ccccc1F,4,0.2,-2.8%,2,-0.9,10
O=C(CCOc1ccccc1)N1CCN(S(=O)(=O)c2cccs2)CC1,-5,0.9,-0.9%,21,-0.6,6
COc1ccccc1C(=O)Nc1c2c(nn1-c1cccc(C)c1C)CS(=O)C2 (stereo not given),4,-6.2,-0.5%,-4,-0.1,-1
Cc1ccc(CNC(=O)COc2cc(O)c3c(c2)OC(C)(C)CC3=O)cc1,0,1.6,2.2%,-1,/,/
CCN(C[C@H]1N[C@@](C)(C(=O)OC)[C@H]2C(=O)N(Cc3ccccc3)C(=O)[C@@H]12)C(=O)c1ccc(C(C)(C)C)cc1,4,?,-1.2%,-1,1.0,-2
COc1ccc(C(=O)NCC(c2ccco2)N2CCOCC2)cc1 (stereo not given),2,-1.1,0.6%,-5,0.1,-14
Cc1cn2c(=O)cc(COC(=O)c3cccc(NC(=O)COc4ccccc4)c3)nc2s1,/,/,0.7%,/,2.2,-4
Nc1ccc(SC(F)(F)F)cc1,2,-0.2,4.3%,-6,-0.7,8
Cc1cc(C)n(-c2nnc(C)n2NS(=O)(=O)c2ccc(F)cc2)n1,-2,0.4,/,-1,1.0,12
C[C@@H]1CN([C@@H](C)CO)C(=O)CCCn2nncc2CO[C@H]1CN(C)Cc1ccc2c(c1)OCCO2,6,-1.3,0.8%,5,0.2,-11
COc1ccc(C(=O)c2c(O)cc(-c3ccc(OC)cc3)oc2=O)cc1,-2,0.3,2.9%,-3,0.1,-12
O=C(NCCN1CCOCC1)c1cc2ccccc2oc1=O,1,-2.4,1.2%,4,-0.7,16
Cc1nc2ccccc2n1C1CCN(C(=O)Nc2ccccc2)CC1,-3,-4.6,0.6%,3,0.0,-2
Cc1ccccc1NC(=O)c1ccc2c(O)c(S(=O)(=O)c3ccccc3)c(=O)[nH]c2c1,-29,-2.8,-1.0%&0.1%,-21,-0.2&0.2,52&19
Fc1cccc(/C=N/n2c(C3CCCCC3)n[nH]c2=S)c1,3,6.4,6.4%,-5,/,/
CN1CCc2c(sc(NC(=O)CS(=O)(=O)c3ccccc3)c2C(N)=O)C1,-9,-6.9,0.5%,-15,0.2,13
O=C(O)c1ccccc1-c1ccccc1C(=O)Nc1ccccc1-c1ccccc1,/,-2.1,-1.3%,-1,-0.6,0
Brc1ccccc1C1N=C(c2ccccc2)NO1 (stereo not given),12,-0.7,2.0%,2,2.4,24
COc1cc(C)c(NC(=O)C(=S)NCc2ccccc2)cc1C,0,-3.5,6.9%,1,1.3,29
CCOC(=O)N1CCN(S(=O)(=O)c2cc(Br)cc3c2N(C(=O)C2CC2)CC3)CC1,3,-0.4,-2.5%,0,-0.6,-3

# Individual results from the results shown:
# CCOC(=O)N1CCN(S(=O)(=O)c2cc(Br)cc3c2N(C(=O)C2CC2)CC3)CC1 – TRPML1 agonist: -0.6
# CN1CCc2c(sc(NC(=O)CS(=O)(=O)c3ccccc3)c2C(N)=O)C1 – PINK1 modulator: 0.5%
